Screening results (PubChem BioAssay)
Mtb H37Rv = M. tuberculosis H37Rv growth inhibitors, H37Rv strain (AID 1626) | M. tuberculosis H37Rv growth inhibition; higher % means a stronger effect | one-dose inhibition, % at 10 µM; IC50 in µM for titrated hits | 220,000 tested, 0.95% active;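 active = confirmed in a dose series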;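 note: bacteria incubated seven days before Alamar blue readout; 0% = bacteria only wells and 100% = bacteria with antibiotic wells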
RecA intein inh = Mtb RecA intein splicing inhibitors, primary screen, biochemical, fluorescence, HTS; 290,000 tested, 0.75% active; cell-free RecA intein splicing; inhibition, %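 (about 9 µM by stock and volumes)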; Protein RecA (Mycobacterium tuberculosis (strain ATCC 25618 / H37Rv)), P9WHJ3; in the data active = inhibition above about 30%;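 note: 0% = vehicle wells and 100% = reference inhibitor control wells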
Target sequence (P9WHJ3 whole entry, looked up): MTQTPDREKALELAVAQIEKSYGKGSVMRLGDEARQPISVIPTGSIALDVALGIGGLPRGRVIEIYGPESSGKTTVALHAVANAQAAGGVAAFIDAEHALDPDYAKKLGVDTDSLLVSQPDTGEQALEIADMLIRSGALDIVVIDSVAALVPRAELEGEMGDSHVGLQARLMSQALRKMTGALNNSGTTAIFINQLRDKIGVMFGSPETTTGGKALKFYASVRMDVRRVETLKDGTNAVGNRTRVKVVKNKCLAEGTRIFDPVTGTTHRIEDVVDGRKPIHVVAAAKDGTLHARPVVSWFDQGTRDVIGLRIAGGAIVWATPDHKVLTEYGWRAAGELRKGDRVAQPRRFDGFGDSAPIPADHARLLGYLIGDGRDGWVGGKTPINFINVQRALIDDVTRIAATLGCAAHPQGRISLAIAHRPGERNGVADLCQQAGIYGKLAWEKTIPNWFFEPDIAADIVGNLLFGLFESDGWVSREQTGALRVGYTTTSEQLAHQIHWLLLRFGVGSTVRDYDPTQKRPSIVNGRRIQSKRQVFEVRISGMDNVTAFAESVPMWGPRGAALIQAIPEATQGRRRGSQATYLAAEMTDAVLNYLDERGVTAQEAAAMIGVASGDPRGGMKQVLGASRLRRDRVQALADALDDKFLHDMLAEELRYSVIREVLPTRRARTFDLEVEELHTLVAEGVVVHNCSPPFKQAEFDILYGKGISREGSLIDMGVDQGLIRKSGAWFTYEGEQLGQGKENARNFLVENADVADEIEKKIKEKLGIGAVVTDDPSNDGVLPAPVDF
YopH inh = YopH tyrosine phosphatase inhibitors, primary screen, biochemical, fluorescence Ex485/Em525 | YopH tyrosine phosphatase [Yersinia enterocolitica] | inhibition, %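 (about 10 µM by stock and volumes)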 | 140,000 tested, 0.16% active | AID 898, 2007;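 active = inhibition of 50% or more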;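 note: controls were vehicle for no effect and minimum signal wells for full effect; inactives centre near -20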
Arbovirus inh = antivirals against arbovirus infection, primary screen, cell-based, full library, 10K replicate subset | AID 1251, 2008 | inhibition, % at 10 µM | arbovirus infection cell-based antiviral screen | 200,000 tested, 0.37% active;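 active = inhibition from about 30%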;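 note: bluetongue infection of BSR cells; cell survival read as ATP light after 72 h; 0% = infected wells without compound and 100% = uninfected wells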
Mtb betalactam = beta-lactam sensitization of Mtb H37Rv, H37Rv; M. tuberculosis H37Rv growth with meropenem, percent inhibition; hits of this screen are not shown here; inhibition, % at 25 µM; 330,000 tested, 0.27% active;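 active = about 74% or more and at least 40 points above the plate without the antibiotic, then above 30% in a dose series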;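 note: growth measured after seven days incubation then overnight dye step; 0% = bacteria only wells and 100% = bacteria with antibiotic; twin plates without the antibiotic show which effects depend on it; some results filed as inactive read as strong as hits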
Arbovirus inh repeat = also measured in Arbovirus inh; calls as there; inhibition, %; measured here: 10K subset replicate screen; many hits read low in the repeat;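 first of two repeat runs on a subset; 0% = infected and 100% = uninfected wells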
The depositor's hits bear a star; . = no result given; & = joins results of further samples. A portion of the library; count on the stated rates, not on these rows.

SMILES | Mtb H37Rv | RecA intein inh | YopH inh | Arbovirus inh | Mtb betalactam | others
Cc1ccc(CNC(=O)C(=O)NCC2CCCO2)cc1 (centres undefined) | 4.5% | -8.1 | -78.1 | -6.1 | -4.1
Brc1cccc(/C=N/Nc2nn[nH]n2)c1 | -2.6% | -2.4 | . | -4.4 | -2.4
O=C(c1ccc(F)cc1)n1c(NCc2ccccc2)n[nH]c1=S | 1.5% | -0.7 | . | -5.9 | -1.6
CCOc1ccccc1/C=N/n1c(C)nc2ccccc2c1=O | . | 1.4 | . | . | -2.9
Cc1ccc(-n2nnnc2SCc2nc3sc(C)c(C)c3c(=O)[nH]2)cc1 | 14.7% | -0.4 | -12.5 | 0.7 | -6.8
CN1CCC(=NNC(=O)CN(c2ccc([N+](=O)[O-])cc2)S(=O)(=O)c2ccccc2)CC1 | . | -0.2 | . | . | -2.1
NC(=O)c1nn(-c2cccc(Cl)c2)c(=O)cc1O | -2.4% | -9.4 | -7.2 | 3.9 | -5.2
CC(Oc1ccc(Cl)cc1Cl)C(=O)/C=C/N(C)C (centres undefined) | -3.8% | -0.8 | -56.5 | 6.6 | 10.0
Cc1ccc(-n2c([C@@H]3C[C@H]3c3ccccc3)n[nH]c2=S)cc1 | 1.8% | -0.5 | -35.2 | -8.0 | 0.6
O=C(Nc1ccc(Cl)cc1)N1CCN(c2ncccn2)CC1 | -10.4% | -0.7 | . | -4.9 | 25.1
CCOc1ccc2nc3c(cc2c1)CN(CCOC)C(=NC)S3 | -2.3% | -0.5 | -21.6 | -18.4 | -1.2
Cn1c(NC(=O)C[n+]2cc(-c3ccc(F)cc3)n3c2CCC3)cc(=O)n(C)c1=O | -5.3% | -3.4 | 1.2 | 2.4 | -2.0
CC(C)c1nc2oc3ccccc3c(=O)c2c(=O)n1-c1ccccc1 | 6.8% | -2.2 | -10.6 | -2.9 | .
CCC(Sc1nc(-c2ccccc2)c(C#N)c(=O)[nH]1)C(=O)Nc1cc(C)on1 (centres undefined) | -15.0% | 0.7 | -1.7 | -9.1 | -1.4
COC(=O)CCCC1=CC2=CC(=O)C(C)(OC(=O)c3cccs3)C(=O)C2=CN1CCCCO (centres undefined) | 8.0% | 7.2 | . | . | 7.3
CSCCC(NC(N)=O)C(=O)N(C)CC(=O)Nc1cc(C)ccc1C (centres undefined) | -1.5% | -1.2 | 2.2 | 7.6 | -7.0
CCOC(=O)C1C(=O)N(C)C2(C)CC1c1ccccc1O2 (centres undefined) | -1.8% | 1.1 | -25.1 | 6.5 | 0.3
CC(C)(C)C(=O)NC1CC2CCCC(C1)N2C(=O)Nc1cccc(Cl)c1 (centres undefined) | . | -0.2 | . | . | 0.8
Cc1ccc(NS(=O)(=O)N2CCOCC2)cc1Cl | . | -2.2 | . | . | -13.0
NC1=NC(=O)C(c2ccccc2)O1 (centres undefined) | 4.4% | . | . | 4.5 | .
CC(C)COC(=O)NCC12C=CC(O1)C1C(=O)N(c3ccc(Cl)cc3)C(=O)C12 (centres undefined) | -0.2% | 0.1 | -14.5 | 6.8 | 18.1
O=c1c2cc(Cl)ccc2nc(-c2ccc(Cl)c(Cl)c2)n1O | . | -0.4 | . | . | 98.9
CCCNC(=O)OCc1cccnc1Sc1ccc(C)cc1 | 10.9% | -3.0 | . | 12.1 | 1.9
COc1ccc(C(=O)CN(C(=O)c2ccc(Cl)cc2)N2C(=O)c3ccccc3C2=O)cc1 | -0.9% | 1.3 | -43.6 | 3.4 | .
CCOC(=O)Nc1ccc2c(c1)N(C(=O)N(C)C)c1ccccc1CC2 | -3.5% | 3.7 | -29.4 | 6.7 | -14.9 | Arbovirus inh repeat=4.5
CSc1nsc(SC)c1NC(=O)OCC1CCCO1 (centres undefined) | -2.2% | 0.8 | -14.1 | -3.9 | 1.7
COc1nc(OCCNS(=O)(=O)c2ccc(C)cc2)nc(N(C)C)n1 | -8.3% | -1.3 | . | . | 0.3
CCCOc1ccc([N+](=O)[O-])cc1C1NC(=S)NC(c2ccccc2)=C1C(=O)OCC (centres undefined) | 9.0% | 4.0 | -8.7 | 0.3 | -11.3
Cc1onc(-c2ccccc2)c1C(=O)N1CCC2(CC1)OCCO2 | -10.3% | -1.7 | 12.6 | 2.8 | -8.2
Cc1ccc(C(=O)O)cc1-c1ccc(/C=C2\SC(=O)N(CC(=O)Nc3ccccc3)C2=O)o1 | 6.6% | -24.4 | . | -7.2 | 4.9
Cc1cccc2cc(C(c3nnnn3C(C)(C)C)N3CCN(C(=O)c4ccco4)CC3)c(=O)[nH]c12 (centres undefined) | -2.8% | -1.2 | -2.5 | 6.2 | 5.5
CC1C2C(C)N(C)C(=O)N(C)C2N(C)C(=O)N1C (centres undefined) | -7.9% | -4.3 | -28.7 | -3.1 | -11.3
COc1ccc(C(=O)N2CCN=C2SC)cc1OC | 8.9% | 1.9 | 2.5 | -3.4 | 2.9
CC(C)N(C)C(=O)CCc1nnc(CCc2c[nH]c3ccccc23)o1 | 0.3% | -1.6 | . | -4.8 | -6.9
COc1ccc(C2CC(c3ccccc3)=NN2C(=O)CN2N=NC3C(=O)N(c4cccc(F)c4)C(=O)C32)cc1 (centres undefined) | . | -2.9 | -12.6 | -5.7 | 0.7
COc1ccc(C2(C(=O)Nc3ccccc3)CCOCC2)cc1 | 2.7% | 1.5 | -20.0 | 0.3 | -1.9
CCOc1ccc(NC(=O)CCC(=O)NNC(=O)COc2ccc(C)cc2)cc1 | 74.1% | 0.4 | . | -4.5 | -5.7
Nn1c(SCC(=O)Nc2ccc(OC(F)F)cc2)nnc1-c1ccco1 | . | -2.6 | . | . | -8.9
O=C(/C=C/c1ccco1)Nc1cccc(S(=O)(=O)N2CCOCC2)c1 | -1.7% | 1.3 | -13.8 | -20.4 | -1.9
Cn1cccc1CN1CCN(C(=O)COc2ccccc2)CC1 | -0.3% | 5.7 | -43.0 | 0.1 | -7.2
Cc1cc(C)n2nc(SCC(=O)N(C)C3CCCCC3)nc2n1 | . | -3.3 | . | . | -9.8
O=C1C(c2c(O)[nH]c3ccccc23)=Nc2ccccc21 | 6.7%&2.3% | 3.8 | . | -0.2 | 13.0
NC(=O)CN1C(=O)NC2(CCCc3ccccc32)C1=O (centres undefined) | . | 1.3 | . | . | 1.9
Cc1cc(Cl)ccc1OCC(=O)NNC(=O)C1CCCO1 (centres undefined) | -0.3% | -2.1 | . | 1.0 | -3.9
COc1cccc(-c2nc3ccccc3c(=O)o2)c1 | 6.7% | 5.1 | -11.0 | 11.4 | 17.5
O=C(COc1ccc(Cl)cc1)N/N=C/CCc1ccccc1 | 4.8% | 1.6 | -9.1 | 1.6 | -1.1
O=C(N/N=C/c1ccoc1)c1cccc(OC(F)(F)C(F)F)c1 | . | -0.2 | . | . | -0.2
COCCCNC(=O)c1cccc(NC(=O)c2ccccc2)c1 | -4.0% | -0.1 | -23.7 | -10.1 | -7.9
Cc1cccc(NC(=O)Nc2cccnc2)c1C | . | -1.3 | . | . | -7.1
Cc1c(NC(=O)COc2c(F)c(F)c(F)c(F)c2F)c(=O)n(-c2ccccc2)n1C | . | -0.8 | . | . | -8.8
Oc1ccccc1N1CCN(c2ncnc3sc(-c4ccccc4)cc23)CC1 | 9.21µM* | 1.5 | . | . | 98.8
Cc1ccc(CN2CCN(Cc3nc(C(C)C)cs3)CC2CCO)cc1 (centres undefined) | 4.5% | -12.8 | . | 2.6 | 3.6
O=[N+]([O-])c1ccc(NC2CCCC2)cc1 | 9.8% | 4.7 | -15.8 | -2.8 | 6.3
CC12CCC(C(=O)Nc3ccccc3)(C/C1=N\O)C2(C)C (centres undefined) | -8.7% | -1.5 | -140.0 | -3.3 | -0.7
CC(C)(C)C1CCC(=O)N(CCSc2ccccc2)CC1 (centres undefined) | . | 6.1 | . | . | 2.0
CC(C)(C)c1ccc(C(=S)N2CCN(c3ccccc3)CC2)cc1 | -1.2% | 3.5 | . | . | -0.7
NC(=O)C1CCN(CCS(=O)(=O)c2ccc(Cl)cc2)CC1 | -5.1% | . | . | . | -3.8
Cc1cc(NC(=O)COC(=O)COc2ccc3c4c(c(=O)oc3c2)CCC4)no1 | 2.0% | 1.2 | . | 0.1 | -9.2
CCc1ccc(C(C(=O)NC(C)(C)CC)N(Cc2ccco2)C(=O)Cn2nnc3ccccc32)cc1 (centres undefined) | 2.4% | 0.4 | -21.9 | -8.1 | -9.5
Nc1c(Cl)cc(C2=NCCn3c2c2ccc(C(F)(F)F)cc2[n+]3[O-])cc1Cl | . | 2.6 | . | . | 97.5

More entries.
SMILES | Mtb H37Rv | RecA intein inh | YopH inh | Arbovirus inh | Mtb betalactam | others
CCC(=O)N1CCc2cc(Br)cc(S(=O)(=O)N(C)c3ccc(OC)cc3OC)c21 | 4.3% | -3.6 | . | -4.6 | -0.8
CC1=NN(C(=O)Cn2nc([N+](=O)[O-])c(Br)c2C)C(O)(C(F)(F)F)C1 (centres undefined) | 1.8% | -3.4 | -20.9 | -2.5 | -4.5
COc1cccc2c(=O)c3ccccc3oc12 | -3.6% | -1.5&-2.4 | . | -7.3 | -10.6
CC(C)(C)CN1C(=O)C(=O)NC[C@@H]1CCCCN | -5.9% | 0.2 | . | . | 1.6
O=c1[nH]c(CN(CCO)CCO)nc2c1C1(CCCCC1)Cc1ccccc1-2 | 8.3% | 0.8 | -30.9 | 9.7 | .
CC(=O)c1c(N2CCN(C)CC2)nc(=S)n(-c2cc(C)ccc2C)c1C | -3.4% | -6.4 | . | 3.4 | 7.4
CC1=C(C(=O)O)N2C(=O)[C@@H](NC(=O)CCCC(=O)O)[C@H]2SC1 | -4.0% | -1.2 | . | 0.1 | -1.0
CSc1ccccc1OCc1cc(C(=O)NCCC2CCCCO2)no1 (centres undefined) | . | -0.1 | . | . | 0.9
CCc1cccc(C)c1NC(=O)COC(=O)CC1CCCC1 | . | 2.2 | . | . | -4.3
Cc1cccc(C)c1NC(=O)COC(=O)c1ccccc1O | . | -0.8 | . | . | -1.1
O=C(c1ccncc1)N1CCN(C(=O)c2cccc3ccccc23)CC1 | -12.1% | 5.3 | 0.0 | -3.1 | -2.5 | Arbovirus inh repeat=-0.1
C=CCn1c(SCC(=O)Nc2ncc(Cc3cc(Cl)ccc3Cl)s2)nnc1-c1ccncc1 | 0.1% | 0.0 | -40.6 | 2.4 | -7.3
C=C(C)Cn1c(Sc2nc3ccccc3[nH]2)nc2c1c(=O)[nH]c(=O)n2C | 2.7% | 0.6 | -40.7 | 0.3 | -4.5
Cc1ccc(SCCOCCN2CCc3ccccc3C2)cc1 | 0.6% | 4.1 | -19.0 | 7.4 | -9.1
Cc1cccc(OCc2occc2C(=O)Nc2cccc(-n3cnnn3)c2)c1 | . | -0.8 | . | . | 8.9
CCC(=O)Nc1ccc(NC(=O)CN2CCCC(C)C2)c(Cl)c1 (centres undefined) | 7.4% | -1.6 | -31.0 | -0.1 | 2.0
CC(C)(C)NC(=O)C(c1ccccc1)N(C(=O)CNC(=O)c1cccs1)c1cccnc1 (centres undefined) | . | 0.8 | . | . | -3.3
CCc1cccc2c(C(=O)CCl)c[nH]c12 | -3.5% | 20.9 | -32.1 | 18.4 | 99.1
Cc1sc2nc(CC(=O)N3CCCC3)[nH]c(=O)c2c1C | 4.0% | -0.6 | . | 5.6 | 4.5
CCCc1cc(=O)oc2cc(OCC(=O)N(C)C)c(Cl)cc12 | -11.8% | 2.4 | -10.8 | -4.5 | -3.0 | Arbovirus inh repeat=4.2
COc1ccc(S(=O)(=O)N2CCOCC2)cc1C(=O)NC1CCCCC1 | . | -1.8 | . | . | -17.7
COC(=O)C1=C(C)NC(C)=C([N+](=O)[O-])C1c1ccccc1C(F)(F)F (centres undefined) | 17.4% | 0.2 | -44.5 | -3.3 | -0.1&4.8
CCn1nc(NC(=O)c2cccnc2)c2cc3ccccc3nc21 | -2.1% | -15.1 | -6.6 | -5.5 | -2.4
CN(C)NC(=O)C(NC(=O)c1ccccc1)C12CC3CC(CC(C3)C1)C2 (centres undefined) | -4.1% | 0.9 | . | 2.5 | -9.0

A stretch of the results above, as a working copy:
SMILES | Mtb H37Rv | RecA intein inh | YopH inh | Arbovirus inh | Mtb betalactam | others
COc1ccc(S(=O)(=O)N2CCOCC2)cc1C(=O)NC1CCCCC1 | . | -1.8 | . | . | -17.7
COC(=O)C1=C(C)NC(C)=C([N+](=O)[O-])C1c1ccccc1C(F)(F)F (centres undefined) | 17.4% | 0.2 | -44.5 | -3.3 | -0.1&4.8
CCn1nc(NC(=O)c2cccnc2)c2cc3ccccc3nc21 | -2.1% | -15.1 | -6.6 | -5.5 | -2.4
CN(C)NC(=O)C(NC(=O)c1ccccc1)C12CC3CC(CC(C3)C1)C2 (centres undefined) | -4.1% | 0.9 | . | 2.5 | -9.0
